Screening data from PubChem.
Biofilm kill mix = clotrimazole potentiators killing C. albicans biofilm, primary screen, 4-compound mixtures. C. albicans biofilm persisters + clotrimazole, fluorescence viability; primary screen in compound mixtures of four per well. 120,000 compounds, 0.02% hits. inhibition, % at 7.6 µM;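 active = inhibition above 30.3% in the primary screen of four-compound pools, then above 30% when the compound was retested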;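 note: compounds exposed to preformed 24 h biofilms for 48 h; the number belongs to the whole pool; some results filed as inactive read as strong as hits; inactives centre near 12; 0% = biofilm with clotrimazole alone and 100% = kill control; retested singly at about 60 µM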
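System: C. albicans CAF4-2 wild-type biofilms; Medium: RPMI/MOPS medium, pH 7.0; Reagent: Clotrimazole, 50 µg/mL; Times: biofilm formation 24 h, compound exposure 48 h, 37 °C; Detection: 2-h Alamar Blue fluorescence, 535/590 nm excitation/emission; Evaluation: percent inhibition of biofilm viability.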
* hit, by the source's call; & = joins results of further samples.

SMILES	Biofilm kill mix
COc1ccc2ccccc2c1/C=N/NC(=O)c1cccc(Br)c1	3.6
COc1cccc(NC(=S)N(CCCN2CCN(C)CC2)Cc2ccco2)c1	0.7
Cc1ccc(S(=O)(=O)N2CCN(C(=O)CSc3nnnn3C)CC2)c(C)c1	25.6
Cc1ccc(CNC(=O)CCCc2nc3ccccc3s2)cc1	15.4
COc1ccc(-n2c(SCC(=O)Nc3ccccc3)nc(O)cc2=O)cc1	28.5
CC(C)c1ccc(/C=N/NC(=O)c2cc(-c3cccc([N+](=O)[O-])c3)n[nH]2)cc1	16.3
C(=C\N1CCCCCC1)/c1nnnn1-c1ccc(-c2ccccc2)cc1	21.2
Clc1ccc2nc(CSCc3ccccc3)cn2c1	0.4
O=C(CSC1=NC(=O)C(c2ccccc2)C(=O)N1)Nc1ccccc1[N+](=O)[O-] (stereo not drawn)	9.2
O=C(NCc1ccco1)/C(=C/c1ccco1)NC(=O)c1ccco1	26.1
COc1ccc(/C=N/NC(=O)CCn2c3ccccc3c3ccccc32)cc1OC	14.2
CC(C(=O)N1CCc2ccccc21)N1CCc2ccccc2C1 (stereo not drawn)	13.4
O=C(N/N=C/c1sc(=O)n(-c2ccccc2)c1Cl)c1ccccc1	13.8
Cc1ccc(S(=O)(=O)CCC(=O)N2CCN(c3ccc(Cl)cc3)CC2)cc1	4.3
CC(C)C(=O)NC(=S)Nc1c(Cl)ccc2nsnc12	12.2
COCCN(C(=O)CSc1nc2ccc(C)cc2[nH]1)c1c(N)n(Cc2ccccc2)c(=O)[nH]c1=O	9.4
OCCC1CN(Cc2nc3ccccc3[nH]2)CCN1C1CCCC1 (stereo not drawn)	23.1
O=C(CSc1nnc(CNC(=O)c2ccco2)o1)Nc1nc2ccccc2s1	6.2
Cc1ccc(-c2cc(-c3ccccc3)no2)c(O)c1	4.5
Cc1cc2c([nH]c3ccccc32)c2c1OC(C)(C)C=C2	21.3

Going on with the list.
SMILES	Biofilm kill mix
Nc1ccc(Cl)c(S(=O)(=O)Nc2cccc(Cl)c2)c1	4.0
CCOc1cccc2sc(N(CCCN(C)C)C(=O)Cc3ccccc3)nc12	9.9
CO/N=C(\Cn1ncc(N2CCOCC2)c(Br)c1=O)c1ccc(Cl)cc1	10.9
COc1ccc(N(CC(=O)NCCSc2ccccc2)S(C)(=O)=O)cc1	21.9
COc1ccccc1N1CCN(C(=O)Nc2ccc(F)c(Cl)c2)CC1	8.8
C[N+]1(C2CCC3CCCC2C3O)CCCCC1 (stereo not drawn)	-8.8
CCOc1ccc(/C=C2\SC(=S)N(N3C(=O)C4CC4C3=O)C2=O)cc1 (stereo not drawn)	0.4
CCOc1ccccc1/C=N/NC(=O)CNC(=O)c1ccc(S(=O)(=O)N2CCOCC2)cc1	12.3
COc1cc(/C=C2\SC(=N)N(c3ccc(F)cc3)C2=O)ccc1O	15.9
O=C(Nc1ccc(F)cc1)N(Cc1cccs1)Cc1cc2cc3c(cc2[nH]c1=O)OCO3	13.0
COc1cc(/C=N/NC(=O)c2cccnc2)ccc1OC(=O)c1ccc([N+](=O)[O-])cc1	11.0
C[c-]1[c-](C)[c-](C)[c-](C)[c-]1C.[Fe].c1cc2nccc(N3CCCC3)[c-]2c1 (stereo not drawn)	16.5&14.6
Cc1ccc(-n2nc(-c3ccccc3)cc2Nc2ccccc2N)cc1	4.8
CC1=NN(c2cccc(Cl)c2)C(=O)C1	9.6
O=C(Nc1ccc(Cl)c([N+](=O)[O-])c1)c1ccncc1	9.9
CCOc1cc(N2CCOCC2)c(OCC)cc1NC(=O)c1ccc(OCc2c(C)noc2C)c(OC)c1	22.4
O=C1C2CC=CCC2C(=O)N1c1ccc(NCCc2cccc(F)c2)c([N+](=O)[O-])c1 (stereo not drawn)	7.5
c1ccc2c(-c3cc(C4CCNCC4)[nH]n3)cccc2c1	15.5
COc1ccnc(Oc2ccc(F)cc2)c1-c1ncn[nH]1	4.1
O=C(NC1CCCC1)C1CCC(CNS(=O)(=O)c2cccs2)CC1 (stereo not drawn)	7.7

Another view of 4 compounds above:
O=C(Nc1ccc(F)cc1)N(Cc1cccs1)Cc1cc2cc3c(cc2[nH]c1=O)OCO3
  Biofilm kill mix: 13.0

COc1cc(/C=N/NC(=O)c2cccnc2)ccc1OC(=O)c1ccc([N+](=O)[O-])cc1
  Biofilm kill mix: 11.0

C[c-]1[c-](C)[c-](C)[c-](C)[c-]1C.[Fe].c1cc2nccc(N3CCCC3)[c-]2c1 (stereo not drawn)
  Biofilm kill mix: 16.5&14.6

Cc1ccc(-n2nc(-c3ccccc3)cc2Nc2ccccc2N)cc1
  Biofilm kill mix: 4.8

Next section.
SMILES	Biofilm kill mix
CCn1c(CNc2ccc(Cl)cc2)nnc1SCC(=O)OC1CCCCC1	4.5
Cc1cc(NC(=O)CCC2CCCCC2)no1	16.7
Cc1cccc(C(=O)NC(=S)NNC(=O)c2ccccc2Cl)c1	14.2
CCc1nnc(NS(=O)(=O)c2ccc(NC(=S)NC(=O)c3ccc(Br)cc3)cc2)s1	-12.4
CC(=O)Nc1nonc1NC(=O)COc1ccccc1	15.9
O=c1c2ccccc2nc(-c2ccc(Cl)cc2Cl)n1O	24.6
CC(C)CNC(=S)NC(=O)c1ccccc1Cl	8.6
COC(=O)n1c(=O)oc2ccc(S(=O)(=O)N3CCCCC3)cc21	11.8
CCOC(=O)C1CCN(C(=O)c2c(-c3ccccc3)noc2C)CC1	8.5
O=C(NCc1nc2ccccc2[nH]1)c1c(F)c(F)c(F)c(F)c1F	6.1
O=C(COc1ccccc1)NNc1nc2c(F)cc(F)cc2s1	6.2
COc1cc(C2=NC(CO)(CO)CO2)cc(OC)c1OC	-0.8
OC1CCN(C(=S)Nc2ccc(Oc3ccccc3)cc2)CC1	7.0
CCOC1=NN(c2ccccc2)C(=O)/C1=C\N(C)C	17.6
CCC(CC)NCCOC(=O)c1ccc([N+](=O)[O-])cc1	8.8
COc1ccc(C(=O)NCc2ccc3[nH]c(C)cc3c2)cc1OC	13.7
CC1CCc2sc(NC(=S)NC(=O)c3ccccc3)c(C#N)c2C1 (stereo not drawn)	6.9
Cc1ccc(S(=O)(=O)NNc2ccccc2)c(C)c1	11.8
O=C(CSc1n[nH]c(-c2ccccc2)n1)Nc1ccc(Br)cn1	16.4
O=C(C1=NN[C@@H]2C(=O)N(c3cccc(C(F)(F)F)c3)C(=O)[C@H]12)c1cnccn1	32.3

(continued)
SMILES	Biofilm kill mix
CN(C)C(=O)[C@@H]1C[C@H]1[C@@H](NC(=O)OCc1ccccc1)c1ccccc1	3.7
Cc1nnc(SCC(=O)NC(=O)NC(C)(C)C)s1	12.5
Cc1ccsc1C(=O)OCC(=O)Nc1ccc(Cl)cc1C(F)(F)F	8.5
Cc1ccc(C(=O)OCC(=O)NCc2cccs2)c(C)c1	9.2
CN1CCN(C(=S)Nc2ccc(Cl)cc2)CC1	11.6
CCOC(=O)C1(CC2CCCCO2)CCN(C(=O)Nc2cccc(SC)c2)CC1 (stereo not drawn)	10.1
COC(=O)N/N=C/c1cc(Cl)c(OCc2ccccc2F)c(OC)c1	15.5
O=c1c2ccccc2nnn1CSc1ccccc1	17.7
O=C1CSCC(=O)N1c1ncc(C(F)(F)F)cc1Cl	11.9
NNc1nc(-c2ccccc2)cs1	-2.0
Cc1ccc(C(=O)N2CCN(c3ncccn3)CC2)cc1S(=O)(=O)N1CCCCC1	8.9
O=C(Nc1ccc(S(=O)(=O)Nc2nccs2)cc1)c1cc(=O)[nH]c2ccccc12	21.7
O=C(Cc1ccccc1)Nc1ccccc1C(=O)Nc1ccc(C(=O)O)cc1	13.3
N/C(=N\OC(=O)Cc1ccccc1)c1cccc(Br)c1	17.5
CCN(CC)S(=O)(=O)c1ccc(N2CCOCC2)c(NC(=O)c2ccccc2)c1	15.4
CC1CCc2ccccc2N1C(=N)N(C)C (stereo not drawn)	12.8
CCN(CC)c1nc2c3c(nc4c(c3c1C#N)CC(=O)N4c1ccc(Cl)cc1)NC(C)=N2	5.4
O=C(CCC(=O)c1ccc(-c2ccccc2)cc1)Nc1cccnc1	10.7
COC(CN(C(=O)CCl)C(C(=O)NC1CCCC(C)C1C)c1ccc(C)cc1)OC (stereo not drawn)	10.4
CC(=O)O[C@]1(C(C)=O)CC[C@H]2[C@@H]3C=C(Cl)C4=CC(=O)CC[C@]4(C)[C@H]3CC[C@@]21C	8.8

Other entries.
SMILES	Biofilm kill mix
CC(=O)SC1CC(=O)N(c2ccc(C(C)(C)C)cc2)C1=O (stereo not drawn)	21.1
CC1(C)Cc2ccccc2C(/C(=N\Nc2cccc(Cl)c2)C(N)=O)=N1	8.6
Fc1ccccc1NC(=S)N(CCN1CCCCC1)Cc1ccco1	17.6
CCNc1ccc(S(=O)(=O)NCCN(C)C)cc1[N+](=O)[O-]	13.4
COc1cc(/C=C2\SC(=S)NC2=O)ccc1OS(=O)(=O)c1ccccc1	10.9
CC(C)C(NC(=O)c1ccco1)C(=O)OCC(=O)Nc1ccc(C(N)=O)cc1 (stereo not drawn)	7.5
O=C(COC(=O)c1c[nH]c(=O)[nH]c1=O)Nc1ccccc1Br	21.1
CCN(CC)S(=O)(=O)c1ccc(C)c(NC(=O)CSc2nc3ccccc3[nH]2)c1	17.6
Cc1ccc(-c2ccc(SCC(=O)N3CCCc4ccccc43)nn2)cc1	15.9
N=c1c2c(-c3ccccc3)c(-c3ccccc3)n(Cc3ccco3)c2ncn1CCCn1ccnc1	7.8
Cc1nc2ccc(Cl)cc2nc1C	22.8
O=C(CSc1nnc(-c2ccncc2)n1-c1ccccc1)Nc1ccc(C(=O)O)cc1	15.0
O=C(COC(=O)c1ccc(F)cc1F)NC1CC1	13.7
COc1ccc(-c2nc3cc([N+](=O)[O-])ccc3o2)cc1OC	22.8
O=C(Nc1ccc2c(c1)C(=O)N(c1ccccc1)C2=O)c1cccs1	28.9
CC(NC(=O)CSc1nc(=O)cc(N)n1-c1ccccc1)c1ccccc1 (stereo not drawn)	8.9
N/C(=N\NC(=O)c1sccc1OCc1ccc(Cl)cc1Cl)c1ccccn1	9.3
CN(C)S(=O)(=O)c1cccc(NS(=O)(=O)c2ccc(Cl)s2)c1	14.1
O=C1CCCc2nc3c(cc21)C(O)Oc1c-3ccc2ccccc12 (stereo not drawn)	17.2
O=C(Cn1c(-c2ccccn2)nc2ccccc21)N/N=C/c1ccccn1	18.2

Later entries
SMILES	Biofilm kill mix
CCC(=O)N1CCc2cc(OC)c(OC)cc2C1COc1ccccc1OC (stereo not drawn)	0.3
Cc1ccsc1CN(C)C(=O)CCc1nnc(COc2ccccc2)o1	9.0
CCOc1ccc(Oc2cc(C)nc(SC)n2)nn1	10.4
COc1ccccc1N1CCN(CCCCCCOc2ccc(F)cc2)CC1	4.0
O=C(CC12CC3CC(CC(C3)C1)C2)NC(=S)Nc1ccc(CN2CCOCC2)cc1	11.9
Cc1noc(C)c1COc1ccc(C(=O)Nc2ccccc2)cc1	3.9
COC(=O)c1ccc(NC(=O)Nc2ccccc2F)cc1	14.9
CCC(=O)N1CCC(C(N)=O)(N2CCCCC2)CC1	-0.8
CC1(C)CC(=O)c2cnc(NC3CC3)nc2C1	4.5
Cc1cc(C)nc(SCC(N)=O)n1	11.0
C/C=C/C=N/NC(=O)CN(c1ccc(Br)cc1)S(=O)(=O)c1ccccc1	14.0
O=C(O)/C=C/C(=O)Nc1ccc(S(=O)(=O)N2CCCC2)cc1	13.6
O=C(NCCCN1CCOCC1)c1ccccc1NS(=O)(=O)c1ccc(Br)cc1	20.1
C=CCOC(=O)C1=C(C)NC(C)=C(C(=O)OCC=C)C1c1ccc(C)o1	11.5
Cn1c(=O)c(Nc2ccc(O)cc2)c2c3c(cccc31)C(=O)c1ccccc1-2	11.4
CC1c2nc3ccccc3n2C(CC(=O)NC2CC2)C(=O)N1Cc1ccccc1 (stereo not drawn)	7.7
c1ccc(-c2nnc(OCc3cccnc3)c3ccccc23)cc1	1.1
O=S1(=O)N=C(N/N=C/c2ccccn2)c2ccccc21	6.6
O=C(C(c1ccccc1)c1ccccc1)N1CCN(Cc2ccco2)CC1	6.4
Cc1ccc(NC(=O)CN(C)C2CCCCC2)cc1Br	13.9

Further entries
SMILES	Biofilm kill mix
Cc1c(O)ccc2c(O)c(NC(=O)c3ccc4c(c3)CCC(C)(C)O4)c(=O)oc12	10.5
O=C(NC(=S)Nc1nc(-c2cccc([N+](=O)[O-])c2)cs1)c1ccccc1Cl	14.1
COc1ccc(C2CC(c3ccc4ccccc4c3)=NN2C(=O)CN2C(=O)CCC2=O)cc1 (stereo not drawn)	-1.8
c1ccc(-c2cc3n(c2)CCc2ccccc2-3)cc1	18.6
COc1ccc(CN2CCNC(=O)C2CC(=O)NCCc2c[nH]c3ccccc23)c(OC)c1 (stereo not drawn)	1.5
Cc1ccc(S(=O)(=O)N(CC(=O)N/N=C\c2cccs2)c2cccc3cccnc23)cc1	9.3
NC(=O)CCCc1nc(-c2ccccc2)no1	9.2
CC1=C(C(=O)Nc2ccccc2)C2(CCCCC2)C(C(N)=O)C(=S)N1 (stereo not drawn)	-1.1

The list is partial. The share of hits here may be higher or lower than overall.
